# Screens as filed in PubChem.
# MITF inh: inhibitors of MITF, primary screen, MITF inhibitor project, cell-based, luminescence. TRPM1 promoter luciferase, 24 h. inhibition, % (concentration not given with the values). 37,000 compounds, 0.28% hits. AID 2240, 2010;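 active means most replicates at 85% or more, or half of them and the mean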;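 further: human melanocyte line stably carrying TRPM1 promoter luciferase reporter; 0% = vehicle wells and 100% = a positive control; the first replicate is given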
# PD-1 reverse act: activators reversing PD-1 mediated T-cell inhibition, primary screen, luminescence, primary human CD4 T cells, PD-L1 beads; activation, % (test concentration not listed); CellTiter-Glo 96 h; 29,000 tested, under 10 active; AID 2316, 2010;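 active means replicate mean of 50% or more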;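 further: 0% = median vehicle wells and 100% = positive control; 100 nL library stock added to about 50 µL; numbers are from one replicate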
# Hedgehog inh: Hedgehog pathway signaling inhibitors, primary screen, luminescence, Shh-LIGHT2 cells, Gli-luciferase | Shh-LIGHT2 Gli-luciferase reporter, 30 h | inhibition, % (concentration not given with the values) | 22,000 compounds, 2.1% hits | AID 2313, 2010;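 active means replicate mean of 65% or more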;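 further: pathway switched on by Shh-conditioned medium diluted 1 in 25 in low serum; 100 nL library stock added to about 40 µL; 0% = median of neutral wells and 100% = positive control level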
# YB-1 expr inh: inhibitors of YB-1 gene expression, primary screen, cell-based, fluorescence. 30,000 compounds, 0.37% hits. AID 434959, 2010. U2OS, qRT-PCR YB-1 vs CDIP delta delta Cp, 16 h; hits give high values; zero = DMSO, each unit about twofold. delta delta Cp (YB-1 minus CDIP) (concentration not given with the values);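 active means delta delta Cp rounded down to an integer at or above 3, about 3 SD of DMSO wells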;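 further: higher means less YB-1 transcript or more CDIP transcript relative to DMSO; stock transfer was 100 nL into about 100 µL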
# Numbers without * were called inactive; nt = not tested or not shown.
SMILES,MITF inh,PD-1 reverse act,Hedgehog inh,YB-1 expr inh
CCOC(=O)c1ccc2nc(C(F)(F)F)nc(NCCCc3ccccc3)c2c1,6.8,-1.1,nt,0.251
CS(=O)(=O)c1sc(NC(=O)Nc2ccc(Cl)cc2)c2c1C=CCC2,46.5,0.0,106.3*,-0.41
Cc1cc(C(=O)Nc2cccc3c2O[C@@H](CN(C)Cc2ccc(Oc4ccccc4)cc2)[C@@H](C)CN([C@H](C)CO)C3=O)n(C)n1,-18.5,-0.6,-14.6,-0.0504
CN1CCN(c2nc3cc(C(F)(F)F)ccc3n3cccc23)CC1,-7.4,-1.6,39.8,-0.334
C[C@@H]1CN([C@H](C)CO)C(=O)c2cc(NC(=O)Cn3cnnn3)ccc2O[C@@H]1CN(C)S(=O)(=O)c1ccccc1,-1.0,0.3,-12.7,-0.208
CNC[C@@H]1Oc2c(cccc2N(C)C)C(=O)N([C@H](C)CO)C[C@H]1C,-4.7,0.9,4.6,-0.153
Cc1ccc(S(=O)(=O)N2C(=O)CCC2C(=O)Nc2ccc3c(c2)OCCO3)cc1 (configuration not stated),20.0,-2.3,nt,nt
Cc1ccnc(NC(=O)COc2ccc(Cl)cc2)n1,-12.8,0.7,nt,nt
C[C@H](CO)N1C[C@H](C)[C@@H](CN(C)S(=O)(=O)c2ccc(F)cc2)Oc2c(cccc2N(C)C)C1=O,10.3,0.4,34.9,-0.295
C[C@H]1CN([C@@H](C)CO)C(=O)Cc2cc(NS(=O)(=O)c3ccc(Cl)cc3)ccc2O[C@@H]1CN(C)Cc1ccncc1,-9.2,nt,15.1,-0.429
CN(C)C1CS(=O)(=O)CC1N(C)C (configuration not stated),-10.8,-1.0,-24.6,0.561
C[C@H](CO)N1C[C@H](C)[C@@H](CN(C)CC2CC2)Oc2c(NC(=O)C3CCOCC3)cccc2C1=O,-8.0,1.0,-35.5,0.0896
C[C@H](CO)N1C[C@H](C)[C@H](CN(C)S(=O)(=O)c2ccc(Cl)cc2)Oc2ccc(NS(=O)(=O)c3ccccc3)cc2CC1=O,-9.0,nt,nt,-0.487
CCc1c(C)nc(SCC(=O)Nc2ccc(C)cc2)[nH]c1=O,11.5,0.1,nt,nt
Cc1nc2nc(NCc3cccc([N+](=O)[O-])c3)[nH]n2c(=O)c1Cc1ccccc1,-10.2,4.5,nt,nt
CC(Oc1cccc(Cl)c1)C(=O)Nc1cc(C(=O)O)cc(C(=O)O)c1 (configuration not stated),-5.9,-0.2,nt,nt
Cc1noc(C)c1NC(=O)Nc1ccc2c(c1)CC(=O)N([C@@H](C)CO)C[C@H](C)[C@@H](CN(C)C(=O)NC(C)C)O2,-15.7,-0.4,nt,-0.125
Cc1cc(OCC(=O)Nc2cc(C(=O)O)cc(C(=O)O)c2)cc(C)c1Cl,-1.6,1.2,nt,nt
CC(NS(=O)(=O)c1ccc(Cl)cc1)C(=O)Nc1ccccc1Sc1ccccc1 (configuration not stated),7.6,0.7,nt,nt
CCOC(=O)C1CCCN(Cc2nc(N)nc(Nc3ccccc3)n2)C1 (configuration not stated),6.3,0.4,nt,nt
C[C@H]1CN([C@@H](C)CO)C(=O)c2cc(NC(=O)C3CC3)ccc2O[C@@H]1CN(C)Cc1ccc(Cl)c(Cl)c1,-9.2,1.2,nt,1.04
CC(C)NC(=O)Nc1ccc2c(c1)C(=O)N([C@H](C)CO)C[C@H](C)[C@@H](CN(C)C(=O)NC(C)C)O2,-4.6,0.5,nt,0.111
C[C@H]1CN([C@@H](C)CO)C(=O)c2cc(NC(=O)Cn3cnnn3)ccc2O[C@@H]1CN(C)C(=O)Nc1ccc(F)cc1,5.3,1.1,-21.5,0.222
CNC[C@H]1Oc2ccc(NS(=O)(=O)c3ccc(OC)cc3)cc2CC(=O)N([C@@H](C)CO)C[C@@H]1C,0.4,0.2,-25.3,-0.145
NC(=O)CSc1nnc(-c2cnccn2)n1-c1ccccc1,-13.8,1.1,nt,nt

# (continued)
SMILES,MITF inh,PD-1 reverse act,Hedgehog inh,YB-1 expr inh
Cn1cnnc1S/C=C/C(=O)c1ccc(Cl)cc1,76.6,-4.2,8.4,0.775
C[C@H](CO)N1C[C@H](C)[C@H](CN(C)Cc2ccc(-c3ccccc3)cc2)Oc2ccc(NC(=O)C3CC3)cc2C1=O,-0.9,-0.1,2.0,0.176
O=C(Nc1ccccc1)c1cc([N+](=O)[O-])ccc1Cl,-7.1,-20.3,21.9,0.167
Cc1cccc(NC(=O)C(C)N(c2ccc(Oc3ccccc3)cc2)S(C)(=O)=O)c1 (configuration not stated),11.6,0.6,nt,nt
COc1cc(O[C@@H]2O[C@H](CO)[C@@H](O)[C@H](O)[C@H]2O)cc2occ(-c3ccc(O)cc3)c(=O)c12,-28.2,4.7,-20.5,-0.508
C[C@@H]1CN([C@@H](C)CO)C(=O)c2cc(NC(=O)c3ccncc3)ccc2O[C@@H]1CN(C)S(=O)(=O)c1ccc(F)cc1,-8.4,0.7,-11.3,0.131
COc1ccc(NC(=O)N(C)C[C@H]2OCCCC[C@@H](C)Oc3ccc(NS(=O)(=O)c4ccc(Cl)cc4)cc3C(=O)N([C@H](C)CO)C[C@@H]2C)cc1,-11.4,0.6,5.9,-0.118
C[C@@H]1CN([C@H](C)CO)C(=O)Cc2cc(NC(=O)Nc3ccc(C(F)(F)F)cc3)ccc2O[C@@H]1CN(C)C,1.7,-0.1,10.3,-0.549
C[C@@H]1CN([C@H](C)CO)C(=O)c2cccc(NC(=O)c3nc4ccccc4s3)c2O[C@@H]1CN(C)C(=O)Nc1ccccc1,-19.9,-1.8,-21.8,-0.315
C[C@@H]1CN([C@H](C)CO)C(=O)Cc2cc(NC(=O)Nc3ccccc3)ccc2O[C@@H]1CN(C)Cc1ccncc1,-4.7,-3.0,-51.3,-0.00194
Cc1noc(C)c1S(=O)(=O)Nc1ccc2c(c1)C(=O)N([C@@H](C)CO)C[C@H](C)[C@H](CN(C)Cc1ccc(Cl)c(Cl)c1)O2,17.6,nt,11.3,-0.0195
CN(C)c1ccc(NC(=O)CSc2nc3ccccc3c(=O)n2-c2ccc(Cl)cc2)cc1,-13.2,2.1,nt,nt
O=C1CC(c2ccc(O)c(O)c2)Oc2c1ccc(O)c2O (configuration not stated),nt,nt,-29.8,0.793
O=C(CSc1n[nH]c(-c2ccncc2)n1)Nc1ccccc1F,-11.1,2.9,nt,nt
CC(C)=CCc1c(O)c(CC=C(C)C)c2c(c1O)C(=O)CC(c1ccc(O)cc1O)O2 (configuration not stated),16.0,-1.9,-1.6,-0.535
CCc1nc(SCC(=O)OC)c2c3c(sc2n1)CCCC3,-27.2,0.9,nt,nt
OC(CN1c2ccccc2Sc2ccccc21)Cn1nnc2ccccc21 (configuration not stated),-0.7,-3.1,nt,nt
C[C@@H]1CCCCO[C@H](CN(C)S(=O)(=O)c2ccc(Cl)cc2)[C@@H](C)CN([C@H](C)CO)C(=O)c2cc(NC(=O)Nc3ccc4c(c3)OCO4)ccc2O1,7.5,nt,-3.1,0.261
C[C@@H]1CN([C@@H](C)CO)C(=O)c2cc(NC(=O)Nc3ccc4c(c3)OCO4)ccc2O[C@H]1CN(C)Cc1ccc(Cl)c(Cl)c1,57.1,-0.6,38.3,-0.2
Cc1ccc(CNC(=O)C2c3ccccc3Oc3ccccc32)cc1,11.1,-0.1,-7.0,-0.186
C[C@@H]1CN([C@@H](C)CO)C(=O)c2cc(NC(=O)CCC(F)(F)F)ccc2O[C@@H]1CN(C)S(C)(=O)=O,4.5,nt,nt,0.117
COc1ccc(NC(=O)N(C)C[C@@H]2Oc3c(NC(=O)Nc4ccccc4)cccc3C(=O)N([C@H](C)CO)C[C@@H]2C)cc1,-3.8,-0.1,-29.9,-0.0614
Cc1noc(C)c1NC(=O)Nc1ccc2c(c1)CC(=O)N([C@H](C)CO)C[C@H](C)[C@H](CN(C)C(=O)Nc1ccc3c(c1)OCO3)O2,3.3,1.8,-19.7,0.111
Cc1noc(C)c1S(=O)(=O)Nc1ccc2c(c1)C(=O)N([C@H](C)CO)C[C@H](C)[C@@H](CN(C)Cc1ccc(C(=O)O)cc1)O2,7.0,1.5,nt,-0.66
Nc1nncn1C(=O)CCCN1C(=O)c2ccccc2C1=O,-18.6,2.0,nt,nt

# Entries of single compounds, quoted from the list. Values in the order: MITF inh | PD-1 reverse act | Hedgehog inh | YB-1 expr inh
# Cc1ccc(CNC(=O)C2c3ccccc3Oc3ccccc32)cc1 is listed as 11.1 | -0.1 | -7.0 | -0.186
# C[C@@H]1CCCCO[C@H](CN(C)S(=O)(=O)c2ccc(Cl)cc2)[C@@H](C)CN([C@H](C)CO)C(=O)c2cc(NC(=O)Nc3ccc4c(c3)OCO4)ccc2O1 is listed as 7.5 | nt | -3.1 | 0.261
# O=C(Nc1ccccc1)c1cc([N+](=O)[O-])ccc1Cl is listed as -7.1 | -20.3 | 21.9 | 0.167
# CCOC(=O)C1CCCN(Cc2nc(N)nc(Nc3ccccc3)n2)C1 (configuration not stated) is listed as 6.3 | 0.4 | nt | nt
# Nc1nncn1C(=O)CCCN1C(=O)c2ccccc2C1=O is listed as -18.6 | 2.0 | nt | nt

# The list continues:
SMILES,MITF inh,PD-1 reverse act,Hedgehog inh,YB-1 expr inh
O=[N+]([O-])c1nn(-c2ccccc2)n(O)c1=NCc1ccco1,-23.4,-2.3,nt,nt
COc1ccc(S(=O)(=O)N(C)C[C@@H]2Oc3c(NS(=O)(=O)c4ccc(Cl)cc4)cccc3C(=O)N([C@H](C)CO)C[C@@H]2C)cc1,27.2,-2.6,-6.0,2.37
C[C@@H]1CN([C@H](C)CO)C(=O)c2cc(NS(C)(=O)=O)ccc2O[C@H]1CN(C)S(=O)(=O)c1cccs1,-9.0,nt,-11.4,-0.00168
C[C@@H]1CN([C@H](C)CO)C(=O)c2cccc(NS(=O)(=O)c3cn(C)cn3)c2O[C@@H]1CN(C)C(=O)Nc1cccc2ccccc12,12.5,nt,-26.0,-0.217
C/C=C(\C)C(=O)O[C@H]1C=CC(=O)O[C@H]1/C=C/[C@H](O)[C@H](C)O,nt,nt,10.2,0.28
C[C@@H]1CN([C@@H](C)CO)C(=O)Cc2cc(NS(=O)(=O)c3ccccc3)ccc2O[C@@H]1CN(C)Cc1ccc(Oc2ccccc2)cc1,26.2,nt,12.0,0.245
C[C@@H]1CN([C@@H](C)CO)C(=O)c2cccc(NS(=O)(=O)c3ccc(Cl)cc3)c2O[C@@H]1CN(C)C(=O)Nc1ccccc1,1.1,-0.6,16.8,0.148
C[C@@H]1CN([C@@H](C)CO)C(=O)c2cc(NC(=O)C3CCCCC3)ccc2O[C@@H]1CN(C)C(=O)Nc1ccc(F)cc1,-4.0,0.1,-21.5,0.217
C[C@H]1CN([C@@H](C)CO)C(=O)Cc2cc(NS(=O)(=O)c3cn(C)cn3)ccc2O[C@H]1CN(C)S(=O)(=O)c1cn(C)cn1,-10.9,0.1,-77.8,-0.109
C[C@@H]1CN([C@H](C)CO)C(=O)c2cc(NC(=O)c3ccncc3)ccc2O[C@H]1CN(C)C(=O)Nc1ccc2c(c1)OCO2,3.5,1.3,-12.9,-0.204
CS(=O)(=O)N(CC(=O)Nc1ccc(I)cc1)c1cccc2ccccc12,59.4,-2.2,nt,nt
CCc1ccccc1NC(=O)CSc1nnc(C)s1,-9.6,-1.4,nt,nt
CS(=O)(=O)N(CC(=O)Nc1ccc(Cl)c(Cl)c1)c1ccc(Br)cc1,115.9*,-13.7,nt,nt
C[C@H]1CN([C@@H](C)CO)C(=O)c2cccc(NC(=O)c3ccc(-c4nccs4)cc3)c2O[C@@H]1CN(C)C,10.5,nt,19.7,0.000313
N#Cc1ccccc1OCCCCSc1ncccn1,-96.6,1.0,nt,nt
Cc1cc(C)nc(SCCS(=O)(=O)Cc2ccccc2)n1,-1.2,0.9,nt,nt
C[C@H](CO)N1C[C@H](C)[C@H](CN(C)S(=O)(=O)c2cn(C)cn2)Oc2c(NS(=O)(=O)c3ccc(Cl)cc3)cccc2C1=O,3.5,-0.1,-43.3,-0.0799
Cc1ccc(S(=O)(=O)N(C)C[C@@H]2Oc3ccc(NC(=O)Nc4ccccc4)cc3CC(=O)N([C@H](C)CO)C[C@@H]2C)cc1,31.3,nt,-1.5,-0.059
Cc1ccc(S(=O)(=O)N(C)C[C@@H]2Oc3c(NC(=O)Nc4ccc(F)cc4)cccc3C(=O)N([C@@H](C)CO)C[C@H]2C)cc1,-16.5,1.2,-0.1,0.0961
C[C@@H]1CN([C@@H](C)CO)C(=O)c2cccc(NC(=O)C3CCOCC3)c2O[C@H]1CN(C)C(=O)Nc1ccc(F)cc1,2.6,-0.7,-41.1,-0.282
COc1ccc(NC(=O)Nc2ccc3c(c2)C(=O)N([C@H](C)CO)C[C@H](C)[C@@H](CN(C)Cc2ccncc2)OCCCC[C@@H](C)O3)cc1,-3.7,nt,-9.2,-0.216
COC(=O)c1ccccc1Oc1nc(NC(C)C)nc(NC(C)C)n1,1.7,-0.2,nt,nt
O=C(CSc1nccc(=O)[nH]1)Nc1ccc(Oc2ccccc2)cc1,-0.1,-0.3,nt,nt
COc1ccc(S(=O)(=O)N(C)C[C@@H]2Oc3ccc(NC(=O)Cc4ccccc4)cc3C(=O)N([C@H](C)CO)C[C@H]2C)cc1,1.8,-1.4,14.2,0.0862

# This is a subset; rates above refer to the full screens.
